Assay outcomes deposited in PubChem by several laboratories.
INS promoter inh: inhibitors of insulin promoter-driven GFP, primary screen, imaging, TRM-6 cells (human fetal islet line), eGFP reporter, cell count; AID 1273, 2008; inhibition, % at 2 µM; reporter expression induced with tamoxifen; actives 0.9% (n = 130,000);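 active = inhibition above the mean plus 3 SD, with well images judged a real hit on visual review, cut at about 60% in these data, passing the limit was not always enough; inconclusive = inhibition over the cutoff but images rejected on review; inactive = inhibition not above the cutoff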
RGS16-Gao: modulators of RGS16 binding to Galphao, primary screen, biochemical, human proteins, multiplexed bead flow cytometry; Regulator of G-protein signaling 16 (Homo sapiens) + Guanine nucleotide-binding protein …; bead-based flow cytometry RGS16-Galphao binding, fluorescence; actives lie on both sides; binding response (% of control), % at 10 µM; actives 0.38% (n = 220,000); AID 1441, 2008;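 active = below 25% or above 175%, edge rows of some plates excepted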;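 note: Galphao activated by GDP with aluminum fluoride before binding; 100% = wells without compound and 0% = beads without RGS; some results beyond the cut were filed as inactive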
Target sequence (O15492 whole entry, looked up): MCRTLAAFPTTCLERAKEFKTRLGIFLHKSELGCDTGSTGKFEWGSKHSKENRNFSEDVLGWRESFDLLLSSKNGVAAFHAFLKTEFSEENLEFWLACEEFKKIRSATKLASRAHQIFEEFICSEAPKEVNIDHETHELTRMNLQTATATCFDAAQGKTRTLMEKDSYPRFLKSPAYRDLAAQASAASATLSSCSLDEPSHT
Target sequence (P09471 whole entry, looked up): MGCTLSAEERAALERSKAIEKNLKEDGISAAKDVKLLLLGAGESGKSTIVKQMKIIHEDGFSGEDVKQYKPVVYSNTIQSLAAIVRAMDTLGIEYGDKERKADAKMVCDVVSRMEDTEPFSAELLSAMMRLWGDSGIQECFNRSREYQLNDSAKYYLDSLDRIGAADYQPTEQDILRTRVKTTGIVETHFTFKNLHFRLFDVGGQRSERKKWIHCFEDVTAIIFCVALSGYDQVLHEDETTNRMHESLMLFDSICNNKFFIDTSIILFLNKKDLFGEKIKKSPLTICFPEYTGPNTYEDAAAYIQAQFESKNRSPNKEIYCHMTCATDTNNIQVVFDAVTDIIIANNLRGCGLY
PKD1 kinase inh: inhibitors of human PKD1 kinase, biochemical, fluorescence polarization | Serine/threonine-protein kinase D1 (Homo sapiens), Q15139 | PKD1 kinase fluorescence polarization assay | inhibition, %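 (about 10 µM by stock and volumes)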 | actives 0.056% (n = 200,000);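 active = inhibition of 50% or more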;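 note: controls were vehicle for no effect and a reference inhibitor for full effect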
HSV replic up: enhancers of HSV replication in host cells, fold increase, host cell viability. maximum fold increase. AID 1956, 2009. actives 0.005% (n = 220,000). HSV replication augmentation in cells;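 active = peak rise of 1.5-fold or more in the series; inconclusive = self-fluorescent or not available for retest; tested in PC3 cells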;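 note: first round at 10 µM; read as green reporter fluorescence; hits show the peak of a series up to 25 µM; 1 = signal of infected wells without compound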
GALR2 ag: GALR2 receptor agonists, primary screen, cell-based | Galanin receptor type 2 (Homo sapiens), O43603 | GALR2-expressing cells, agonist activation read-out | actives 0.48% (n = 140,000) | activation, %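 (tested at 5 µM)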;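 active = above mean plus 3 SD of all compounds, about 5% in these data, not always enough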;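 note: 0% = vehicle buffer wells and 100% = reference agonist at full effect; tested in CHO reporter cells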
Target sequence (O43603 whole entry, looked up): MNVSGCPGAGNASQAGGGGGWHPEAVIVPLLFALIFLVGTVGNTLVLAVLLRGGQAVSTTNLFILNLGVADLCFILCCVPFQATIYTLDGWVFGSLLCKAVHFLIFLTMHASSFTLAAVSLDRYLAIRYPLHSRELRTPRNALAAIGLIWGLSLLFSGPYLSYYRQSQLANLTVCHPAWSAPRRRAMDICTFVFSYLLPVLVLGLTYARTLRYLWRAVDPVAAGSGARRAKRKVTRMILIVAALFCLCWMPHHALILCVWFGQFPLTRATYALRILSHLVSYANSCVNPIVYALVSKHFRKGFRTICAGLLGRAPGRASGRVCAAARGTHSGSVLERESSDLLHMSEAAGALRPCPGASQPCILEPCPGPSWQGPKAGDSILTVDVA
INS promoter inh cell count: recorded beside INS promoter inh, whose call it bears; normalized cell count, %; measured here: cell count, toxicity; reference of the scale not given here;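 cells exposed to compound for 48 h; stained nuclei by imaging scaled within each plate; lower means fewer cells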
HSV replic up primary fold: further read-out of HSV replic up, marked with its call; fold increase; compound at 10 µM; measured here: primary screen fold increase 10 uM; tested in PC3 cells;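 GFP signal in the first replicate; 1 = infected wells without compound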
Starred values were filed as active, the others as inactive; i = inactive; ? = inconclusive; nt = no result given.

SMILES | INS promoter inh | INS promoter inh cell count | RGS16-Gao | PKD1 kinase inh | HSV replic up | HSV replic up primary fold | GALR2 ag
Cc1ccccc1Nc1nnc(SCC(=O)NC(=O)NCc2ccco2)s1 | 40 | 105 | 106 | -9 | nt | nt | 0.3
O=C(Cn1cc2c(n1)CCCCC2)NC1CCN(Cc2ccccc2)CC1 | nt | nt | 104 | -10 | i | 0.98 | nt
Cc1nn(Cc2cccc(C(=O)Nc3ccn(Cc4c(F)c(F)cc(F)c4F)n3)c2)c(C)c1[N+](=O)[O-] | -38 | 76 | 99 | -1 | i | 0.9 | -1.0
c1ccc(CCNc2nc(-c3cccnc3)cs2)cc1 | 65 | 117 | 100 | -4 | i | 0.69 | -2.1
O=C(C[n+]1ccc(C(=O)N/N=C/c2ccc(O)cc2)cc1)c1ccccc1 | nt | nt | 83 | -3 | i | 0.91 | -1.0
CCN(CC)CCOC(=O)c1ccc(NC(=O)CNC(=O)c2ccccc2)cc1 | nt | nt | 105 | 0 | i | 0.89 | nt
Cc1cc(=O)oc(C)c1C(=O)N1CCN(C)CC1 | nt | nt | 91 | -2 | i | 1 | -1.2
COc1ccccc1C1C(C(N)=O)=C(C)Nc2nc(-c3ccccc3Cl)nn21 (stereo unspecified) | nt | nt | 102 | 0 | i | 0.89 | -0.8
CC(=O)c1cc2c(cc1NS(=O)(=O)c1ccc(C)cc1)OCCO2 | -19 | 94 | 98 | -1 | i | 0.72 | -0.9
Cc1onc(-c2ccccc2Cl)c1C(=O)Nc1nnc(Cc2ccc(Cl)cc2)s1 | -17 | 179 | 88 | -7 | i | 0.88 | -2.5

In another format: entries from further up
Fields: INS promoter inh | INS promoter inh cell count | RGS16-Gao | PKD1 kinase inh | HSV replic up | HSV replic up primary fold | GALR2 ag
> CC(=O)c1cc2c(cc1NS(=O)(=O)c1ccc(C)cc1)OCCO2
  -19 | 94 | 98 | -1 | i | 0.72 | -0.9
> Cc1onc(-c2ccccc2Cl)c1C(=O)Nc1nnc(Cc2ccc(Cl)cc2)s1
  -17 | 179 | 88 | -7 | i | 0.88 | -2.5
> Cc1ccccc1Nc1nnc(SCC(=O)NC(=O)NCc2ccco2)s1
  40 | 105 | 106 | -9 | nt | nt | 0.3

Additional structures
SMILES | INS promoter inh | INS promoter inh cell count | RGS16-Gao | PKD1 kinase inh | HSV replic up | HSV replic up primary fold | GALR2 ag
O=C(NCC1OCCCN1S(=O)(=O)c1cc(F)ccc1F)C(=O)NC1CCCCC1 (stereo unspecified) | -56 | 95 | 111 | -2 | i | 0.88 | nt
O=C(CSc1nc2ccsc2c(=O)n1NC(=O)c1ccccc1)Nc1nccs1 | 50 | 17 | 111 | 0 | i | 1.1 | -2.0
COC(=O)c1ccc(N2NC(=O)/C(=C/c3ccc(-c4ccc(Cl)c(C(=O)O)c4)o3)C2=O)cc1 | nt | nt | 93 | -7 | i | 0.95 | nt
c1coc(CNC2CCCCC2)c1 | 50 | 103 | 91 | 1 | i | 0.94 | -0.9
Cn1c(Cl)c(/C=N/OC(=O)C2CC2)c2ccccc21 | -30 | 90 | 102 | 2 | i | 0.99 | nt
CCOc1ccc(NC(=O)c2ccc(NCC(=O)N3CCCCCC3)cc2)cc1 | nt | nt | 98 | -5 | i | 0.95 | nt
COCCCN(CCC#N)C(=O)c1c(-c2c(Cl)cccc2Cl)noc1C | nt | nt | 104 | nt | i | 0.91 | nt
COc1ccc(CCNC(=O)CCCCn2c(=O)[nH]c3ccccc3c2=O)cc1OC | nt | nt | 104 | -11 | i | 1.1 | -1.1
COc1ccc(NC(=O)C2CCC(CNc3c(N4CCCCC4)c(=O)c3=O)CC2)c(OC)c1 (stereo unspecified) | nt | nt | 98 | nt | i | 0.83 | nt
Nc1c2c(nc3ccccc13)CCCC2=O | nt | nt | 104 | nt | i | 0.73 | nt
CCn1c(-c2ccccc2SC)n[nH]c1=S | nt | nt | 101 | 5 | i | 0.89 | nt
CC(C)c1ccc(S(=O)(=O)N2CCN(C(=S)NCc3ccco3)CC2)cc1 | -10 | 95 | 91 | -14 | i | 0.98 | 0.1
CCc1c(C)c2c(C)[nH]nc2oc1=O | 55 | 101 | 105 | -9 | i | 0.92 | -2.1
C=C(C)C(=O)Nc1cccc(C2=NOC3(C2)C[C@H](C(N)=O)N(C(=O)c2ccccc2C(=O)c2ccccc2)C3)c1 (stereo partly specified) | nt | nt | 95 | nt | i | 0.91 | nt
COC(=O)c1ccc(-n2c(C)nc(=O)c(-c3ccccc3)c2C)cc1 | 72* | 55* | 499 | -4 | i | 0.97 | -1.9
CCC(C)C(=O)Nc1nc(C)c(-c2csc(Nc3ccccc3OC)n2)s1 (stereo unspecified) | 2 | 133 | 98 | -1 | i | 0.93 | 0.7
O=C(CN1C(=O)C2C3C=CC(C3)C2C1=O)Nc1ccc(S(=O)(=O)Nc2nccs2)cc1 (stereo unspecified) | nt | nt | 93 | nt | i | 1 | nt
Cc1ccc(NC(=O)CN(C)Cc2ccc(Cl)cc2)cc1 | nt | nt | 84 | 2 | i | 1.1 | nt
CCOc1ncccc1C(=O)OCC(=O)Nc1cccc(S(N)(=O)=O)c1 | 60 | 167 | 94 | -1 | i | 0.92 | nt
Cc1sc2ncnc(OCC(=O)c3ccc(S(=O)(=O)N4CCCC4)cc3)c2c1C | nt | nt | 102 | -8 | i | 1.1 | -0.6

Some of these compounds in order of their number in HSV replic up primary fold, falling:
molecule,RGS16-Gao,PKD1 kinase inh,HSV replic up primary fold,GALR2 ag
Cc1cc(=O)oc(C)c1C(=O)N1CCN(C)CC1,91,-2,1,-1.2
Cn1c(Cl)c(/C=N/OC(=O)C2CC2)c2ccccc21,102,2,0.99,nt
CCC(C)C(=O)Nc1nc(C)c(-c2csc(Nc3ccccc3OC)n2)s1 (stereo unspecified),98,-1,0.93,0.7
CCOc1ncccc1C(=O)OCC(=O)Nc1cccc(S(N)(=O)=O)c1,94,-1,0.92,nt

Next part
SMILES | INS promoter inh | INS promoter inh cell count | RGS16-Gao | PKD1 kinase inh | HSV replic up | HSV replic up primary fold | GALR2 ag
CC(=O)c1ccc(N2CCN(C(=O)c3ccc4c(Cl)c5c(nc4c3)CCCC5)CC2)cc1 | nt | nt | 97 | 2 | i | 1.2 | nt
O=C(COC(=O)CSc1ccc2ccccc2c1Br)NC1CC1 | nt | nt | 101 | -6 | i | 0.97 | nt
CC(C)(C)c1cc(=O)n(-c2ccccc2)[nH]1 | 23 | 146 | 104 | 1 | i | 1.1 | -1.7
CN1C2CCC1/C(=C/c1cccn1C)C(=O)/C2=C\c1cccn1C | 31 | 111 | 100 | -19 | ? | nt | -1.4
O=C(NCc1ccco1)[C@@H]1CSC2c3ccccc3C(=O)N21 (stereo partly specified) | 31 | 83 | 106 | -11 | i | 1.1 | -0.6
Cc1cccc2cc(CN(Cc3cccs3)Cc3nnnn3Cc3ccccc3)c(=O)[nH]c12 | -65 | 179 | 89 | -7 | i | 1.2 | 0.7
Cc1ccc(Cl)cc1N1CCN(C(=O)Cn2ccc3ccccc3c2=O)CC1 | nt | nt | 98 | -10 | i | 0.79 | -3.7
O=S(=O)(NCC(c1cccnc1)N1CCOCC1)c1ccccc1 (stereo unspecified) | 27 | 99 | 110 | -5 | i | 1.1 | nt
NC(=O)CCC1NC(=S)N(Cc2ccccc2)C1=O (stereo unspecified) | nt | nt | 108 | 3 | i | 1.1 | nt
CC/C(=N\NC(=O)CSCc1ccc(Cl)cc1)c1ccc2c(c1)OCCO2 | nt | nt | 91 | 4 | i | 1 | -1.3
OC(C#CCCN1CCCCC1)(c1ccccc1)c1ccccc1 | nt | nt | 95 | nt | i | 1.1 | nt
c1ccc(-c2cc(-c3ccncc3)nc3ccc4ccccc4c23)cc1 | 15 | 97 | 81 | -2 | i | 0.91 | -1.9
COC(=O)c1ccc(N2CCC(C)CC2)c(N)c1 | 3 | 96 | 102 | 0 | i | 1 | -0.9
COc1ccccc1N(CC(=O)NC(C)(C)C)C(=O)Cn1nnc(-c2ccc(C)o2)n1 | nt | nt | 104 | 10 | i | 0.96 | -2.8
CC1CN(c2ccc(S(=O)(=O)N3CCOCC3)cn2)CC(C)O1 (stereo unspecified) | -21 | 67 | 96 | -3 | i | 1 | -2.5
COc1ccccc1C1(CC(=O)N2CCOCC2)CCOC(C(C)C)C1 (stereo unspecified) | -70 | 93 | 100 | 2 | i | 0.75 | -2.1
NCCOc1cnn(-c2ccccc2Cl)c(=O)c1Cl | -93 | 49 | 118 | -9 | i | 1.1 | -1.0
Brc1cccc(Cn2c(-c3cncs3)nc3ccccc32)c1 | 13 | 154 | 99 | -8 | i | 0.71 | -1.9
COc1c(N2CCN(C(=S)NCc3ccccc3)C(C)C2)c(F)cc2c(=O)c(C(=O)O)cn(C3CC3)c12 (stereo unspecified) | 17 | 97 | 103 | -2 | ? | nt | -0.7
O=C(CCCN=C1NS(=O)(=O)c2ccccc21)OCc1cc([N+](=O)[O-])cc2c1OCOC2 | nt | nt | 101 | 1 | i | 0.97 | nt
Cc1cc(C)n(-c2nc3c(c(=O)[nH]c(=O)n3C)n2CC(O)COc2ccccc2C)n1 (stereo unspecified) | nt | nt | 102 | -9 | i | 1 | -0.3
Cc1ccc(S(=O)(=O)N2CCC(=O)N(CCOCc3ccccc3C)CC2)cc1 | -70 | 64 | 121 | 3 | i | 0.81 | -1.0
O=C1c2oc3ccc(F)cc3c(=O)c2C(c2ccc(F)cc2)N1CCCN1CCOCC1 (stereo unspecified) | nt | nt | nt | -6 | i | 1.1 | -0.9
COc1ccc2cc3cc(C(=O)NCC4CCCO4)oc3nc2c1 (stereo unspecified) | 3 | 67 | 96 | -5 | i | 0.92 | -0.6
Cc1nn(C)c(C)c1S(=O)(=O)NCc1cccs1 | nt | nt | 79 | 4 | i | 1 | -1.1
CCOc1cc(N2CCOCC2)c(OCC)cc1NC(=O)c1ccccc1C | nt | nt | 93 | 2 | i | 1 | nt
CCOC(=O)c1c(C)[nH]c(C(=O)COC(=O)CCC2CCCC2)c1C | 38 | 100 | 8 | -2 | i | 0.87 | -0.5
CC(NS(=O)(=O)c1cccc(Cl)c1)C(=O)N(C)C1CCN(C)CC1 (stereo unspecified) | nt | nt | 95 | 1 | i | 0.98 | nt
COc1ccc(S(=O)(=O)N2CCN(Cc3cccc(Cl)c3)CC2)cc1 | 5 | 109 | 129 | 2 | i | 0.86 | 0.9
Cc1ccc(C)c(NC(=O)c2sc(Cl)nc2-c2ccccc2)c1 | -52 | 61 | 107 | -4 | i | 1 | -2.0
CCN(CC)S(=O)(=O)c1ccc(C(=O)NC(C)(C)C)cc1 | nt | nt | 106 | -2 | i | 0.94 | nt
Cc1cc(C=C2C(=O)c3ccccc3C2=O)c(C)n1-c1cccc(C(=O)O)c1 | -21 | 132 | 106 | -1 | nt | nt | nt
CN1/C(=C/C=C(C#N)C#N)C(C)(C)c2ccccc21 | 45 | 110 | 90 | -2 | ? | nt | nt
O=S(=O)(Cc1cc(-c2ccc(Cl)cc2)no1)c1ccccc1 | 16 | 132 | 101 | -6 | i | 0.94 | 0.5
CCOc1ccc(-n2c(COc3ccc(C)cc3)nnc2SCC(N)=O)cc1 | 31 | 67 | 48 | -17 | i | 0.93 | -0.8
CC(C)(C)NC(=O)Nc1ccccc1C(N)=O | 38 | 111 | 89 | -17 | i | 0.97 | -1.2
N#Cc1cc(Sc2ccccn2)c([N+](=O)[O-])cc1C#N | -82 | 109 | 95 | 2 | ? | nt | nt
COc1ccc(CC(=O)OCC(=O)N2N=C(c3ccccc3)CC2c2ccc(OC)cc2)cc1 (stereo unspecified) | -143 | 54 | 29 | -5 | i | 0.94 | -0.6
Cc1cc(C)n(CC(=O)N/N=C/c2ccc([N+](=O)[O-])s2)n1 | 33 | 186 | 108 | 9 | i | 0.95 | nt
COc1ccc(/C(O)=C2/C(=O)C(=O)N(CC3CCCO3)C2c2ccc(O)c(OC)c2)cc1 (stereo unspecified) | -67 | 39 | 100 | -1 | i | 0.95 | nt
CCOC(=O)c1c(-c2ccc(C)s2)csc1NC(=O)c1cccs1 | -27 | 65 | 101 | -9 | i | 0.82 | -3.0
CC1(C)NC(=O)N(CCCOc2ccccc2Br)C1=O | -15 | 68 | 114 | -2 | i | 0.95 | -0.9
CC(=O)Nc1ccc(N2C(C(C)=O)=NN(c3ccccc3)C2c2cccs2)cc1 (stereo unspecified) | 35 | 138 | 100 | -5 | i | 1 | -2.7
O=c1c2c(nc3c(-c4cccc5ccccc45)c[nH]n13)CCC2 | -33 | 130 | 108 | -6 | i | 0.98 | -2.0
